Screens as filed in PubChem BioAssay.
Rango release inh = prevents RanGTP from dissociating the Rango-importin beta complex. O95149+P62826. Biochemical FRET Rango-importin beta, RanGTP-induced dissociation. Potency, µM (series often up to 46.1 µM), for inactives: top-dose activity change, negative = inhibition. 340,000 compounds, 0.071% hits; active means falling FRET ratio curve, often poorly fitted, with flat reads before Ran was added; inconclusive means other falling curves, or compound fluorescence or quenching; inactive means flat or rising ratio curve;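 note: potency is the fitted concentration of half-maximal effect; % of control where 0% means no effect; nearly all actives have a fitted effect of over 45% in size; -100% = wells without RanGTP and RCC1; the record marks most hits as doubtful in a second field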
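Compounds preincubate 5 min with complex of recombinant Rango and importin beta in PBS with 1 mM DTT. Ran (0.6 uM) loaded with 2 mM GTP plus 0.2 uM RCC1 starts dissociation; FRET is recorded 45 min later.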
Rango-impB inh = prevents formation of the Rango-importin beta complex; Q14974; Rango CFP/YFP FRET sensor + importin beta, 45 min; Potency, µM (highest dose often 92.2 µM), inactives show at the highest dose inhibition of complex formation; 340,000 compounds, 0.031% hits; active = rising FRET ratio curve, often small or poorly fitted; inconclusive = mostly compound fluorescence or quenching in the first reads; inactive = flat curves in all reads;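 note: potency is the fitted concentration of half-maximal effect; 0% = DMSO wells and 100% = buffer wells lacking importin beta; nearly all actives have a fitted effect of over 15% in size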
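FRET biosensor (snurportin 1 IBB flanked by EYFP and cerulean), 50 nM, with compound 5 min, then 0.125 microM importin beta in PBS, 1 mM DTT, 0.02% Tween-20, 0.1% BSA. CFP/YFP ratio read after 45 min at room temperature; pre-read flags interference.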
GLA inh pH 4.5 = blocks human alpha-galactosidase A at pH 4.5 | 230,000 tested, under 10 active | activity change, negative = inhibition, % at 105 µM | purified enzyme, 4-MU-alpha-Gal fluorescence, pH 4.5 | P06280; inconclusive = small, poorly fitted or top-dose-only inhibition, or a rising curve; inactive = flat fitted curve, though single readings scatter; no compound was filed as active;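 note: 0% = full activity with enzyme and -100% = basal without enzyme; dose as in the result columns while the protocol names 77 µM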
Target sequence (P06280 whole entry, looked up): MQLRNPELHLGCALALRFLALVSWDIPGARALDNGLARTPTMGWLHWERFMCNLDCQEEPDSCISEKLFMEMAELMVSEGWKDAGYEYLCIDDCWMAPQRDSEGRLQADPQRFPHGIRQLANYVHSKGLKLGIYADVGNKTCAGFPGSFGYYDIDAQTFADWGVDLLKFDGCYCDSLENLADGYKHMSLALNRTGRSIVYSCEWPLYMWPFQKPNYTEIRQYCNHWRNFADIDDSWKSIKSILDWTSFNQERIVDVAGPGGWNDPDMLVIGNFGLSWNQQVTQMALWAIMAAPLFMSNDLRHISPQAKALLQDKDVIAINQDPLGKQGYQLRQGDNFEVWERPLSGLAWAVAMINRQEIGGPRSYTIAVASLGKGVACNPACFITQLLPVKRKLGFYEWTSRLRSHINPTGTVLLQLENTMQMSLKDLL
miR-21 reporter = raises the signal of a miR-21 reporter | 340,000 tested, under 10 active | HeLa miR-21 FLuc reporter, luciferase, 48 h | Potency, µM (series often up to 38.3 µM), without a hit: top-dose reporter change, positive = more light; active = well fitted rising curve with a large enough effect; inconclusive = small, poorly fitted or top-dose-only effect; inactive = no such curve, though single readings can be large or run the other way;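 note: % of control where 0% means no effect; miR-21 action dims this reporter so a rising signal means less miR-21 action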
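Luminescence from a firefly luciferase reporter carrying a miR-21 binding site downstream, stably expressed under a CMV promoter in HeLa cells that make miR-21 endogenously, reports miRNA modulation after 48 h compound exposure up to approximately 40uM final.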
The depositor's hits bear a star; ? = inconclusive; . = not tested or not shown; & = joins results of further samples.

Structure | Rango release inh | Rango-impB inh | GLA inh pH 4.5 | miR-21 reporter
COc1ccc(OC)c(Cc2nnc(CCC(=O)N3CCCCC3c3nccs3)o2)c1 (centres undefined) | 13% | -2.0% | -2 | -55%
CCCCC1=CC2=C(c3ccco3)C(=O)C(C)(OC(=O)c3ccc(OC)cc3)C(=O)C2=CN1C1CCCCC1 (centres undefined) | ? | ? | -7&-7 | -4%
CC(=O)Nc1ccc(S(=O)(=O)NC2Cc3ccccc3C2)cc1 | -15% | -3.4% | . | -3%
CC(=O)Nc1ccc(S(=O)(=O)NCC(C)NS(=O)(=O)c2ccc(NC(C)=O)cc2)cc1 (centres undefined) | -1% | -1.0% | 3 | -4%
CCOC(=O)N1CCN(C(=O)CSCC(=O)Nc2nc(-c3ccc(C)cc3)cs2)CC1 | -17% | -0.8% | -2 | -1%
CCOc1ccc(/C=C2\CCC(C3CCCC3)C2=O)cc1OC (centres undefined) | 13% | 2.0% | . | -9%
CS(=O)(=O)N1CCc2cc(C(=O)N3CCCCC3)ccc21 | -9% | -0.7% | -10 | -8%
CCC(=O)N1CCc2cc(Br)cc(S(=O)(=O)N3CCCCC3CC)c21 (centres undefined) | 1% | 0.6% | . | -2%
CCC(=O)Nc1cccc(-c2cn3ccsc3n2)c1 | 4% | -0.7% | 7 | -38%
CC(/C=N/NC(=O)NC1CCCCC1)=C\c1ccccc1 | 2% | -0.2% | -8 | -10%
Nc1ccc(S(=O)(=O)c2ccc(N)cc2)cc1 | -24% | -2.1% | -7&-3 | 1%
O=C(N/N=C/c1cn(CC(=O)N2CCOCC2)c2ccccc12)c1cccnc1 | -16% | 0.9% | -4 | -1%
COc1cccc(N(CC(=O)NCc2ccco2)C(=O)CCC(=O)Nc2nccs2)c1 | -18% | ? | -5 | 0%
CC(C#N)On1c(SC(C)C#N)nc2ccccc2c1=O (centres undefined) | 3% | 0.2% | 3 | -15%
CC(C)(C)c1cc(NC(=O)c2cccc(S(=O)(=O)N3CCOCC3)c2)no1 | -1% | -0.5% | 5 | ?

4 entries from above, with values under each structure.
Second line of a record – Rango release inh | Rango-impB inh | GLA inh pH 4.5 | miR-21 reporter
- CCC(=O)Nc1cccc(-c2cn3ccsc3n2)c1
    4% | -0.7% | 7 | -38%
- CS(=O)(=O)N1CCc2cc(C(=O)N3CCCCC3)ccc21
    -9% | -0.7% | -10 | -8%
- CC(=O)Nc1ccc(S(=O)(=O)NCC(C)NS(=O)(=O)c2ccc(NC(C)=O)cc2)cc1 (centres undefined)
    -1% | -1.0% | 3 | -4%
- CC(C)(C)c1cc(NC(=O)c2cccc(S(=O)(=O)N3CCOCC3)c2)no1
    -1% | -0.5% | 5 | ?

Next section.
Structure | Rango release inh | Rango-impB inh | GLA inh pH 4.5 | miR-21 reporter
CN(C)C(=O)COn1c(SCC(=O)N(C)C)nc2ccccc2c1=O | -7% | -1.6% | 4 | 3%
O=C(Nc1cccc2ncccc12)c1ccco1 | 19% | 3.2% | . | 1%
Cc1ccc(C(C[N+](=O)[O-])c2c(C)[nH]n(-c3ccccc3)c2=O)cc1 (centres undefined) | -4% | -4.3% | 6 | -10%
Cc1cc(NS(=O)(=O)c2ccc(NC(=O)COc3c(C)cc(Br)cc3C)cc2)no1 | 11% | -0.1% | . | -4%&-1%
CC(=O)N(c1ccc(Cl)cc1)c1nc(C)cc(C)c1C#N | -14% | -1.6% | -14 | -6%
Cc1nc2ncnn2c(C)c1CCC(=O)O | ? | 1.5% | 0 | 0%
CCOc1ccccc1NC(=O)CN1CCC(NC(=O)c2ccccc2C)CC1 | 0% | -2.4% | 9 | 1%
Cc1ccc(S(=O)(=O)NCC(=O)N(CC(=O)NC(C)(C)C)Cc2ccc3c(c2)OCO3)cc1 | 0% | 1.7% | . | -3%
COc1ccc(C2CC(c3cccc(Br)c3)=NN2c2ccc(S(N)(=O)=O)cc2)cc1 (centres undefined) | ? | ? | . | .
CCn1c(SCC(=O)NC2CCCCC2C)nnc1-c1ccc(OC)cc1 (centres undefined) | 0% | -0.4% | 3 | -3%
NC(=O)c1ccsc1NC(=O)CN1C(=O)NC2(CCCCC2)C1=O | -5% | -0.2% | . | .
Cc1nnc(SCC(=O)c2c(N)n(C)c(=O)n(C)c2=O)[nH]c1=O | 1% | -2.7% | -14 | -3%
O=C(CSc1nnc2c(Cl)cc(C(F)(F)F)cn12)N(Cc1ccccc1)Cc1ccccc1 | -12% | -1.4% | -10 | -1%
CCc1nnc(NC(=O)Cc2c[nH]c3ccccc23)s1 | 26% | -0.3% | -1 | 0%
Oc1[nH]c2ccccc2c1N=NC(=S)NCC1CCCO1 (centres undefined) | -7% | 0.8% | 1 | -21%
Cc1c(C)c2cc(Cl)c(O)c(CN3CCCCC3)c2oc1=O | ? | ? | ? | 2%
O=C1CN(C(=O)COC(=O)C23CC4CC(CC(O)(C4)C2)C3)c2ccccc2N1 | 7% | -0.6% | -1 | -9%
Cc1ccc(S(=O)(=O)N2CCC(C(=O)OCC(=O)N3CCC(C)CC3)CC2)cc1C | 4% | 8.8% | . | .
CNC(=O)c1ccc(=O)n(Cc2cccc(C(F)(F)F)c2)c1 | 3% | -0.5% | 13 | -20%
O=C(CN(Cc1ccc(Cl)c(Cl)c1)S(=O)(=O)c1ccccc1)N/N=C\c1ccc2c(c1)OCO2 | 6% | 1.0% | 7 | 24%
N#Cc1c(N2CCCC2)ccc(Br)c1Cl | -1% | -1.3% | -15 | -4%
COc1ccc(/C=C2/S/C(=N/S(=O)(=O)Cc3ccccc3)NC2=O)cc1OC | 0% | ? | -11 | -18%
CC(C)Cc1nc2sc3c(c2c(=O)n1N)CC(C(C)C)OC3 (centres undefined) | 0% | -2.5% | -2 | -2%
Cc1nn2c3ccccc3n(Cc3ccccc3)c2nc1=O | -7% | -1.3% | -2 | -10%
COc1ccc(C)cc1S(=O)(=O)NC1CCCCCC1 | -12% | -2.9% | . | 1%
Cc1ccc(C)c(S(=O)(=O)N2CCCOC2CNC(=O)C(=O)NCc2cccs2)c1 (centres undefined) | -12% | 2.2% | . | 6%
O=C(Cn1cnc2c(oc3ccccc32)c1=O)N1CCN(c2ccccc2)CC1 | 2% | 0.0% | 14 | -9%
Cc1cc(C(=O)N2CCN(S(=O)(=O)c3ccc(F)c(Cl)c3)CC2)c(C)o1 | -7% | 1.1% | . | .
CCc1nnc(NC(=O)c2ccc(F)c(S(=O)(=O)N3CCCCC3)c2)s1 | 6% | 0.1% | . | 1%
CC(C)Sc1nnc([C@@H]2CCCN2C(=O)OC(C)(C)C)o1 | -12% | -1.2% | 1 | 0%
CCOc1ccc(/C=N/NC(=O)c2csc(C)c2C)c(OCC)c1 | -2% | 1.4% | 5 | -32%
CC(=O)N1CCN(c2ccc(NC(=O)c3cccc(C)c3)cc2)CC1 | 0% | 1.1% | . | -20%
CCc1noc(C)c1C(=O)N(C)CC(=O)Nc1ccc(Br)cc1C | 1% | 5.8% | . | .
CCOC(=O)CSC1=C(C#N)C(c2ccccc2C)C2=C(CCCC2=O)N1 (centres undefined) | 2% | ? | 0 | -9%
CC(C)n1nc(C(=O)Oc2cc(Cl)ccc2Cl)c2ccccc2c1=O | -18% | 3.8% | -9 | -7%
Cc1cccc(C)c1N=Cc1c(O)n(-c2nccs2)c(=O)c2ccccc12 | -14% | ? | 2 | 2%
Nc1ncnc2nc(SCCOc3ccc(Cl)cc3)[nH]c12 | 4% | 6.7% | 0 | -44%
CN(C)C(=O)CCc1ccc2c3c([nH]c2c1)[C@]1(C)[C@@H](C(=O)N2CCOCC2)C[C@H](CC(=O)NCCc2ccccn2)C(=O)N1CC3 | -13% | -2.3% | . | .
O=C(N/N=C/c1cccc2cccnc12)c1ccccc1O | -4% | -0.1% | -6 | ?
COc1ccc(NC(=O)Cc2c[nH]c3ccccc23)cc1S(=O)(=O)N1CCCCC1 | -11% | -1.0% | ? | -1%
O=C(Cn1cc(C(F)(F)F)ccc1=O)N/N=C/c1cccc(Cl)c1Cl | -12% | 0.1% | -1 | 0%
CCCCC(C(=O)NC1CCCC1)N(Cc1ccco1)C(=O)Cn1nnc(-c2ccc(F)cc2)n1 (centres undefined) | -4% | -5.9% | -8 | 4%
CC(C)CCN(CC(=O)NC(C)(C)C)C(=O)C(=O)Nc1ccc2c(c1)OCCO2 | -2% | -1.3% | 2 | 3%
Cc1ccc2cccc(S(=O)(=O)N3CCN(c4cccc(Cl)c4)CC3)c2n1 | -10% | -4.0% | -7 | 1%
COc1ccc(COC(=O)C2=C(C)NC(=O)NC2c2cccc(OC)c2OC)cc1 (centres undefined) | -16% | -6.0% | . | -5%
CC(=O)N1CCc2cc(S(=O)(=O)NC(CC(C)C)C(=O)Nc3ccc4c(c3)OCCO4)ccc21 (centres undefined) | -3% | 1.5% | -7 | -12%
CCc1nc(-c2cc3ccc(C)cc3[nH]c2=O)no1 | 12% | 2.8% | 10 | -35%
Cc1nc(CN2CCCCC2)c(O)c(=O)[nH]1 | 1% | 4.7% | . | .
O=C(CN1C(=O)C2CC=CCC2C1=O)Nc1nnc(SCc2c(Cl)cccc2Cl)s1 (centres undefined) | -20% | -0.1% | -1 | 0%
CC(=O)c1cn(CCOc2ccc(F)cc2)c2ccccc12 | 3% | 0.4% | . | 2%
CCCCC1CCC(C(=O)OC(C)C(=O)Nc2ccc(NC(C)=O)cc2)CC1 (centres undefined) | 3% | 0.7% | . | -2%
COc1ccc(O)c(C(=O)c2cnn(-c3ccc(Cl)cc3)c2)c1 | 0% | -0.6% | . | -40%
CC(C)OP(=O)(OC(C)C)/C(C=O)=N\Nc1ccc([N+](=O)[O-])cc1 | -17% | -0.9% | -7 | ?
CC(=O)N1CCN(C(=O)c2ccc(-n3c(C)ccc3C)cc2)CC1 | -9% | 1.6% | 1 | -6%
Cc1cc(NC(=O)c2ccc(C)s2)n(-c2nc3ccccc3[nH]2)n1 | -13% | -1.7% | 10 | -1%
CCc1nnc(NC(=O)c2ccc(S(=O)(=O)N3CCCc4ccccc43)cc2)o1 | -7% | -0.8% | -2 | 28%
O=C(Nc1ccc(F)cc1F)C1CCCN1S(=O)(=O)c1cccc2nsnc12 (centres undefined) | -7% | -2.7% | . | -13%&-6%
CC(C)CN1C(=O)NC(NS(=O)(=O)c2ccc(N)cc2)(C(F)(F)F)C1=O (centres undefined) | 1% | 1.9% | -4 | 3%
CC(OC(=O)Cc1n[nH]c(=O)c2ccccc12)C(=O)Nc1ccc(Cl)cn1 (centres undefined) | 1% | -0.5% | . | 3%
O=C(CCOc1ccccc1)NCc1ccccc1 | 1% | 3.9% | 3 | -12%

Next section
Structure | Rango release inh | Rango-impB inh | GLA inh pH 4.5 | miR-21 reporter
O=C(COn1nnc2ccc(S(=O)(=O)N3CCOCC3)cc21)Nc1c(F)c(F)c(F)c(F)c1F | 9% | 0.6% | -1 | 8%
CCOC(=O)N1CCN(C2CCCN(C(=O)c3ccccc3N(C)C)C2)CC1 (centres undefined) | 16% | 0.4% | . | -1%
OCn1ncn(-c2ccccc2)c1=S | 6% | -2.3% | -3 | 1%
CC(C)(C)C(=O)NCc1ccc(C(=O)CSc2nnc(C3CC3)n2C2CC2)s1 | -9% | 2.2% | . | .
CCCCn1c(N)c(N(CC(C)C)C(=O)CSCC(=O)Nc2cccc(C)c2)c(=O)[nH]c1=O | 1% | -1.9% | . | .
CC(C)OCCCNC(=O)c1cc(-c2cccnc2)nc2ccccc12 | -2% | -0.9% | . | 10%
CC(=O)Nc1ccc(SCCN2CC[C@@H](O)CCC2=O)cc1 | -9% | ? | . | .
Nc1nnc(CC(=O)N/N=C/c2ccc(-c3ccc(Cl)cc3Cl)o2)s1 | -6% | -3.0% | 10 | -7%
CCCCCc1cc(=O)oc2c(C(CCN3CCCC(C)C3)c3ccc(N(C)C)cc3)c(OC)cc(OC)c12 (centres undefined) | 2% | -3.3% | -21 | ?

These rows are one share of the data; the hit share may differ from the screen's.
